V. cholerae motility: Vibrio cholerae motility inhibitors, OD read-out (AID 588778); Vibrio cholerae motility, OD read-out; higher % means a stronger effect; test concentration not given here; primary cut-off and reference of the scale not given here; strong numbers were not always called active; inhibition, %; hits with a dose series show IC50 in µg/mL; 10,000 tested, under 10 active; in the data active means confirmed in a dose series
V. cholerae motility viability: second read-out of V. cholerae motility, no call of its own (marks repeat the call); inhibition, %; measured here: bacterial viability at 10 ug/mL;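 higher means fewer living bacteria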
An asterisk follows results filed as active. This is a subset. The share of hits here may be higher or lower than overall.

#1 CC(=O)Nc1ccccc1SCC(=O)Nc1ccc(I)cc1C(C)C
#2 N#C/C(=C\C=C\c1ccco1)c1nc(-c2cc3ccccc3oc2=O)cs1
#3 COC(=O)c1ccccc1NC(=O)c1ccc2c(c1)CC(C)O2 (stereo unspecified)
#4 Cc1cc(=O)[nH]c(SCCCOc2ccc([N+](=O)[O-])cc2)n1
#5 O=c1nc(N2CCCCC2)nc(Nc2ccc([N+](=O)[O-])cc2)[nH]1
#6 CSc1nc2ccc(NC(=O)CCc3ccccc3)cc2s1
screen / no. | 1 | 2 | 3 | 4 | 5 | 6
V. cholerae motility | 47.8% | -6.5% | 12.4% | -6.4% | -8.3% | 7.8%
V. cholerae motility viability | 45.2 | -1.7 | -3.0 | -4.2 | -3.8 | 0.0

A different layout for some results above:
item | canonical_smiles | V. cholerae motility | V. cholerae motility viability
6 | CSc1nc2ccc(NC(=O)CCc3ccccc3)cc2s1 | 7.8% | 0.0
2 | N#C/C(=C\C=C\c1ccco1)c1nc(-c2cc3ccccc3oc2=O)cs1 | -6.5% | -1.7
3 | COC(=O)c1ccccc1NC(=O)c1ccc2c(c1)CC(C)O2 (stereo unspecified) | 12.4% | -3.0

Sorted by count of non-hydrogen atoms (ascending): part of the list above.
#6 CSc1nc2ccc(NC(=O)CCc3ccccc3)cc2s1
#5 O=c1nc(N2CCCCC2)nc(Nc2ccc([N+](=O)[O-])cc2)[nH]1
#2 N#C/C(=C\C=C\c1ccco1)c1nc(-c2cc3ccccc3oc2=O)cs1
screen / no. | 6 | 5 | 2
V. cholerae motility | 7.8% | -8.3% | -6.5%
V. cholerae motility viability | 0.0 | -3.8 | -1.7

Continuation:
#7 COc1cc(/C=C(/C#N)C(=O)Nc2ccc(O)cc2)cc([N+](=O)[O-])c1O
#8 Cc1cc(Cl)ccc1OCCCC(=O)NO
#9 COC(=O)C1=C(C)NC2=C(C(=O)CC(c3ccco3)C2)C1c1coc2ccc(Cl)cc2c1=O (stereo unspecified)
#10 N#Cc1ccccc1Sc1ccccc1C(=O)Nc1nccs1
#11 CN1CCCC(OC(=O)Cc2ccc(Cl)cc2)C1 (stereo unspecified)
#12 Cc1ccnc(NC(c2ccc3ccc(C)nc3c2O)c2c(F)cccc2Cl)c1 (stereo unspecified)
screen / no. | 7 | 8 | 9 | 10 | 11 | 12
V. cholerae motility | 2.9% | 39.8% | -6.8% | 6.2% | 1.3% | 9.1%
V. cholerae motility viability | -2.3 | 7.8 | -5.0 | 7.0 | -3.4 | 33.3

#13 COc1cc(OC)c(-c2nc3cnccc3n2C)cc1OC
#14 Cn1cc(CNC(=O)c2ccc([N+](=O)[O-])cc2Cl)cn1
#15 Cc1c(CNC(=O)c2cc(-c3ccc4c(c3)OCO4)nc3ccccc23)cnn1C
#16 CSc1nc2n(n1)C(c1sccc1C)C1=C(CCCC1=O)N2 (stereo unspecified)
#17 COC(=O)Nc1cc(C)c(OC)c(C)c1
#18 CSc1ccc(S(=O)(=O)NCCCOC(C)C)cc1
screen / no. | 13 | 14 | 15 | 16 | 17 | 18
V. cholerae motility | 3.8% | -9.5% | -19.9% | 9.2% | 14.8% | 3.7%
V. cholerae motility viability | -0.8 | -1.3 | -5.4 | 28.0 | 3.9 | -0.2

The closing 4 entries of the section above lead into the next.
#15 Cc1c(CNC(=O)c2cc(-c3ccc4c(c3)OCO4)nc3ccccc23)cnn1C
#16 CSc1nc2n(n1)C(c1sccc1C)C1=C(CCCC1=O)N2 (stereo unspecified)
#17 COC(=O)Nc1cc(C)c(OC)c(C)c1
#18 CSc1ccc(S(=O)(=O)NCCCOC(C)C)cc1
#19 O=C(Nc1ccccc1C(F)(F)F)Nc1nn(Cc2c(F)cccc2Cl)cc1Br
#20 CN(C)c1ccc(C2CC=NN2c2ccccc2)cc1 (stereo unspecified)
#21 COC(=O)c1ccc(C(=O)OC)c(NC(=O)Cc2c(F)cccc2Cl)c1
#22 CCOC(=O)c1nc(N)nc(Nc2ccccc2)n1
#23 Cc1c(NC(=O)CSc2nnnn2-c2ccc(O)cc2)c(=O)n(-c2ccccc2)n1C
#24 Cc1cc(NC(=O)C(=O)NCCN2CCN(S(C)(=O)=O)CC2)ccc1Br
screen / no. | 15 | 16 | 17 | 18 | 19 | 20 | 21 | 22 | 23 | 24
V. cholerae motility | -19.9% | 9.2% | 14.8% | 3.7% | 0.3% | 2.1% | -11.9% | 3.5% | -0.4% | 0.5%
V. cholerae motility viability | -5.4 | 28.0 | 3.9 | -0.2 | -2.8 | -3.0 | -1.8 | -0.1 | -3.0 | -2.6

#25 CC(C)c1ccc(OCc2n[nH]c(=S)o2)cc1
#26 COC(=O)c1cc(NC(=O)Cc2coc3ccc4ccccc4c23)cc(C(=O)OC)c1
#27 Cc1cccc2nc(CNc3ccc(F)cc3)cn12
#28 COc1ccc(OC)c(S(=O)(=O)n2c(=O)n(S(=O)(=O)c3cc(OC)ccc3OC)c3cc(C)ccc32)c1
#29 Cc1ccc(C2OC(=O)c3ccccc32)cc1F (stereo unspecified)
#30 CS(=O)(=O)N1CCC(C(=O)N2CCN(c3ccccc3F)CC2)CC1
screen / no. | 25 | 26 | 27 | 28 | 29 | 30
V. cholerae motility | 15.2% | -4.4% | 24.1% | 14.2% | 5.8% | -6.6%
V. cholerae motility viability | 3.8 | -7.0 | 8.7 | -4.6 | -0.4 | 2.1

#31 COc1cc(N2C(=O)c3cccc4c([N+](=O)[O-])ccc(c34)C2=O)ccc1-n1nc(C)cc1C
#32 O=C(NCc1ccc(F)cc1)c1cccc(Br)c1
#33 C=CCOc1cccc(CNCCSc2nnnn2C)c1
#34 CCC1(c2ccccc2)C(=O)NC(=O)N(C(=O)c2ccccc2Cl)C1=O (stereo unspecified)
#35 O=c1c2ccccc2nnn1Cc1ccc(S(=O)(=O)c2ccccc2)cc1
#36 CC1(C)NCCN2C(=O)CSC21 (stereo unspecified)
screen / no. | 31 | 32 | 33 | 34 | 35 | 36
V. cholerae motility | 3.2% | 22.4% | 18.1% | 2.7% | 2.2% | -7.1%
V. cholerae motility viability | -0.9 | 2.5 | 3.6 | 26.4 | -4.3 | 6.2

#37 O=C(CS(=O)(=O)c1ccccc1)Nc1cc(Cl)ccc1Cl
#38 COc1ccc(CNc2nc(C)cc(C)c2C#N)cc1
#39 CN1C(=O)c2ccc(C(=O)Nc3ccccc3I)cc2C1=O
#40 Cc1c(C)c2cc(Cl)c(O)c(CN(C)C)c2oc1=O
#41 Cn1ncc(C#N)c1/N=C/N1CCOCC1
#42 CN1CCN(C(=O)c2ccccc2-c2nc(-c3ccc(Cl)cc3)no2)CC1
screen / no. | 37 | 38 | 39 | 40 | 41 | 42
V. cholerae motility | 3.7% | -10.9% | -6.3% | -16.8% | 5.6% | 7.1%
V. cholerae motility viability | -1.9 | 1.1 | -5.8 | 6.2 | -1.1 | 1.1

#43 O=C1CN(C(=O)C23CC4CC(CC(C4)C2)C3)CC(=O)N1CCc1ccccc1
#44 COc1ccc(NC(=S)NC(C)c2ccncc2)cc1OC (stereo unspecified)
#45 Cc1cc(Oc2nnnn2-c2ccc(C(N)=O)cc2)ccc1Cl
#46 O=[N+]([O-])c1ccc(N2CCN(CCO)CC2)cc1Sc1ccccn1
#47 O=C(CC1C(=O)N(C2CC2)C(=S)N1CCc1ccc(Cl)cc1Cl)Nc1ccc(F)cc1 (stereo unspecified)
#48 O=S(=O)(Nc1cnn(Cc2ccc(Cl)cc2Cl)c1)c1ccc2ccccc2c1
screen / no. | 43 | 44 | 45 | 46 | 47 | 48
V. cholerae motility | 11.9% | 4.5% | 6.6% | -1.4% | -3.9% | 4.4%
V. cholerae motility viability | 1.3 | 1.6 | 1.5 | 2.3 | -5.2 | -5.4

#49 COc1cc(/C=C2/SC(=O)N(C)C2=O)ccc1OCc1cccc(C(=O)O)c1
#50 O=C(c1ccccc1)c1ccc(N2CCOCC2)c(NC(=O)c2cccs2)c1
#51 COc1ccc(CSc2cc(C)c3ccccc3n2)cc1Br
#52 O=C(C(=O)c1ccc(O)cc1)c1ccccc1
#53 CCOCCC(=O)Nc1cc(Cl)c(C(C#N)c2ccc(Cl)cc2)cc1C (stereo unspecified)
#54 Cc1ccc2oc(C(=O)Nc3ccc(C(F)(F)F)cc3[N+](=O)[O-])c(C)c2c1
screen / no. | 49 | 50 | 51 | 52 | 53 | 54
V. cholerae motility | -10.9% | -0.9% | -4.8% | 29.0% | 8.0% | 6.4%
V. cholerae motility viability | -6.2 | -0.4 | -5.1 | 11.3 | 1.1 | 0.5

#55 O=[N+]([O-])c1ccccc1S(=O)(=O)N1CCN(c2ncccn2)CC1
#56 Cc1ccc(OCc2ccc(C(=O)Nc3ncc(Br)s3)o2)cc1C
#57 O=C(NCc1ccco1)Nc1ccncc1
#58 CCCSc1nc2c3c(sc2c(=O)[nH]1)CC(C)(CC)OC3 (stereo unspecified)
#59 FC(F)(F)c1cccc(CSc2nnc(SCc3cccc(C(F)(F)F)c3)s2)c1
#60 Cc1[nH]n(-c2nc3ccccc3[nH]2)c(=O)c1C1OC(=O)c2ccccc21 (stereo unspecified)
screen / no. | 55 | 56 | 57 | 58 | 59 | 60
V. cholerae motility | 21.4% | 1.2% | 2.3% | 1.9% | -37.6% | 46.7%
V. cholerae motility viability | 6.9 | 0.9 | 0.6 | 1.8 | -4.3 | 11.7

#61 O=C(CCc1ccccc1)Oc1ccc(Br)cc1Cl
#62 c1ccc2c3nnc4n(c-3nc2c1)CCS4
#63 Cc1cc(C)n(C(=O)C2(C)CC2(Cl)Cl)n1 (stereo unspecified)
#64 O=C(CSCc1ccc(Cl)cc1)N1CCOCC1
#65 Cn1cc(CNC(=S)Nc2cccc(Cl)c2Cl)cn1
#66 CCC(=O)OC1=C(C)C2C3C(=O)N(c4ccc(F)cc4)C(=O)C3C1(C)C1C(=O)N(c3ccc(F)cc3)C(=O)C21 (stereo unspecified)
screen / no. | 61 | 62 | 63 | 64 | 65 | 66
V. cholerae motility | 0.4% | 122.9% | 6.4% | 18.6% | 5.5% | -1.9%
V. cholerae motility viability | -5.9 | 97.1 | 2.1 | 8.2 | 1.9 | -4.5

#67 Cc1noc(C)c1Cc1c(C)noc1C
#68 COc1cc(C)c(N(C(C)=O)c2ccccc2)c(C)c1
#69 Cc1ccc(S(=O)(=O)Nc2nc(C)cc(N3N=N3)n2)cc1
#70 O=c1[nH]c(-c2ccc(OCc3ccccc3F)cc2)nc2ccccc12
#71 Cc1cc(-c2csc(Nc3ncccn3)n2)ccc1F
#72 Cc1ccc(NC(=O)c2ccc(OC(=O)c3cccs3)cc2)cc1
screen / no. | 67 | 68 | 69 | 70 | 71 | 72
V. cholerae motility | 3.3% | 7.2% | 3.4% | -8.8% | 0.7% | -3.9%
V. cholerae motility viability | -2.9 | -1.3 | -4.4 | -8.2 | -3.4 | -14.0

#73 Cc1ccc(C(=O)Nc2nncs2)s1
#74 CCOc1ccc(I)cc1C#N
#75 Nc1nc(SCC(=O)N2CCC(c3noc4ccc(F)cc34)CC2)n[nH]1
#76 Cc1cc(C(=O)Nc2cccnc2)cs1
#77 CC1c2[nH]c3ccccc3c2CCN1C(=S)Nc1ccccc1 (stereo unspecified)
#78 NC(=O)c1cc(-c2ccccn2)nc2ccc(Br)cc12
screen / no. | 73 | 74 | 75 | 76 | 77 | 78
V. cholerae motility | 24.4% | 5.7% | -5.7% | -19.4% | 9.8% | 22.9%
V. cholerae motility viability | 8.8 | -0.6 | -6.7 | -2.4 | 7.0 | 3.4

#79 Cn1c(-c2ccccc2)cnc1SCC(=O)NCc1ccco1
#80 COc1cc(S(=O)(=O)Nc2ncn[nH]2)ccc1Cl
#81 COc1ccc(NC(=O)CSc2nnc3c4c5c(sc4nc(-c4ccccc4)n23)CCC5)cc1
#82 C=CCN1C(=O)N(/C=C/C)c2cccc3cccc1c23
#83 CN(C)c1ccc(CNCCC2CCOC(C)(C)C2)cc1 (stereo unspecified)
#84 COC(=O)c1ccccc1NC(=O)NCCCn1cc(C)cn1
screen / no. | 79 | 80 | 81 | 82 | 83 | 84
V. cholerae motility | 10.9% | -3.1% | -8.5% | -13.9% | 9.3% | 9.1%
V. cholerae motility viability | 0.8 | -1.3 | -6.6 | -5.6 | -4.4 | -2.4

#85 CSc1nc2ccc(S(=O)(=O)Nc3ccc4c(c3)COC4=O)cc2s1
#86 COc1ccc(S(=O)(=O)N2CCOCC2)cc1C(=O)Nc1nc2ccccc2s1
#87 COc1ccc(C)cc1NC(=S)NNC(=O)Cc1cccs1
#88 CC(=O)Nc1ccc(-c2cnc[nH]2)cc1
#89 COc1cc2oc(C(=O)O)c(C)c2cc1Br
#90 CCC(=O)c1ccc(/C=C/c2nc3ccccc3n2C)o1
screen / no. | 85 | 86 | 87 | 88 | 89 | 90
V. cholerae motility | -0.1% | -5.8% | 12.0% | -2.1% | -28.5% | 17.3%
V. cholerae motility viability | -0.5 | -2.6 | -1.1 | 0.6 | -6.8 | 6.5

The final 2 records of the section before come first, to join the parts.
#89 COc1cc2oc(C(=O)O)c(C)c2cc1Br
#90 CCC(=O)c1ccc(/C=C/c2nc3ccccc3n2C)o1
#91 Cc1nc2cc(NC(=O)Nc3ccc(Br)cc3)ccc2o1
#92 O=C(O)CC(NC(=O)c1cccs1)c1ccccc1 (stereo unspecified)
#93 c1ccc(Oc2cccc(CN3CCC(N4CCCC4)CC3)c2)cc1
#94 CC(=O)Nc1ccccc1-c1n[nH]c(=S)[nH]c1=O
#95 CCOC(=O)C1=CN(C(C)C)C=C(C(=O)OCC)C1c1ccc(F)c(Br)c1
#96 O=C(c1coc2ccc(O)c(CN3CCCCC3)c12)C1CC1
#97 CCC(=O)Nc1ccc2oc(-c3c(F)c(F)c(F)c(F)c3F)nc2c1
#98 CCOC(=O)N1CCN(C(=S)Nc2ccc3nc(-c4ccccn4)c(-c4ccccn4)nc3c2)CC1
#99 CCC(=O)Nc1ccc(I)cc1F
screen / no. | 89 | 90 | 91 | 92 | 93 | 94 | 95 | 96 | 97 | 98 | 99
V. cholerae motility | -28.5% | 17.3% | -0.6% | -4.0% | 1.0% | -2.2% | 4.8% | 19.6% | -5.5% | 8.7% | 27.2%
V. cholerae motility viability | -6.8 | 6.5 | 1.8 | -3.3 | 0.5 | 6.0 | -3.1 | 2.7 | -5.5 | -0.3 | 4.2
